Screening data deposited in PubChem by National Center for Advancing Translational Sciences (NCATS).
HPGD block: inhibitors of human 15-hydroxyprostaglandin dehydrogenase (HPGD). P15428. purified HPGD, NADH fluorescence kinetic, PGE2 substrate. Potency, µM, for the others: top-dose activity change, negative = inhibition, actives largely listed as inhibitors. hit rate 4.3% among 150,000. AID 894; active = well fitted inhibition curve with a large enough effect (not every such curve was filed as active); inconclusive = small, poorly fitted or top-dose-only effect, or another doubt; inactive = no such curve, though single readings can be large or run the other way;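 note: top concentration of the series not given in the record; plate controls included wells without enzyme; inactives centre near -10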
Target sequence (P15428 whole entry, looked up): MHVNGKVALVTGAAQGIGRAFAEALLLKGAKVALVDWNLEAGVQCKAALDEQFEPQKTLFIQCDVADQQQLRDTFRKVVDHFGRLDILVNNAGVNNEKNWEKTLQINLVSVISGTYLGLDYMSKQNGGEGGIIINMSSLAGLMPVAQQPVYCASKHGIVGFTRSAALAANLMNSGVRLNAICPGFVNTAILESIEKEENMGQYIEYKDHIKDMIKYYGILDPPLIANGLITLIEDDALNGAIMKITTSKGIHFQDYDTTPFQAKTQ
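NADH formation kinetics: reaction with 30 uM PGE2 and 1 mM NAD+ (final), 20 nM enzyme, Tris-HCl pH 8 with Tween 20, after 15 min compound preincubation at room temperature. Fluorescence change, last versus first of five reads.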
An asterisk follows results filed as active; u = inconclusive; & = joins results of further samples. % is set by controls: 0 for no effect and ±100 for the full control effect; potency is the fitted concentration of half-maximal effect. Only part of the results is shown; the hit share may differ from the screen's.

The first 2 entries as a preview:
HPGD block | Molecule
-9.9% | O=C(Nc1ccccc1)N1CCN(Cc2ccc3c(c2)OCO3)CC1
u | O=C1OCCN1C(=O)[C@H]1[C@H](c2ccc(Cl)cc2)C(c2ccc(F)cc2)=NN1c1ccc(Br)cc1

Main list, from the start:
HPGD block | Molecule
-9.9% | O=C(Nc1ccccc1)N1CCN(Cc2ccc3c(c2)OCO3)CC1
u | O=C1OCCN1C(=O)[C@H]1[C@H](c2ccc(Cl)cc2)C(c2ccc(F)cc2)=NN1c1ccc(Br)cc1
-13.9% | CC(Oc1ncnc2ccccc12)C(=O)Nc1cccc(S(=O)(=O)N2CCOCC2)c1 (configuration not stated)
-7.2% | O=C(CSc1nncn1-c1ccccc1)Nc1cccc(S(=O)(=O)N2CCCCC2)c1
-11.8% | COc1ccc(-c2nn(-c3ccccc3)cc2CO)cc1
-13.1% | CC(C)Cc1oc(C(=O)O)cc1CN
-11.5% | CCC(=O)Nc1cccc(SC)c1
-2.1% | COc1ccccc1-c1cc(C(=O)N/N=C/C=C/c2ccccc2[N+](=O)[O-])c2ccccc2n1
-17.6% | CN=C1SC(CC(=O)Nc2ccccc2F)C(=O)N1C (configuration not stated)
-3.5% | CCCN(CCO)CCCc1ccccc1
1.8% | O=C(CSc1ccc2nnc(-c3ccccn3)n2n1)Nc1ccc2c(c1)OCCO2
-8.3% | COCCn1c(C)cc(C(=O)CSc2nc3ccccc3o2)c1C
-25.8% | COCCCNC(=O)/C=C/c1ccc(Cl)cc1Cl
-18.1% | O=C(CSc1nc2ccccc2[nH]1)N1c2ccccc2Sc2ccccc21
-6.9% | O=C(/C=C/c1cccs1)N1CCOCC1
-1.0% | O=c1c([N+](=O)[O-])c(N2CCCCC2)c2ccccc2n1-c1ccccc1
15.8µM* | COc1ccc(C2CC(c3c(O)cc(C)oc3=O)=NCCS2)c(OC)c1 (configuration not stated)
1.7% | CCN1CCN(CCNC(=O)CS(=O)(=O)Cc2nc(-c3ccc(C)cc3)oc2C)CC1
-6.7% | COc1ccc(C2c3c(oc4ccc(C)cc4c3=O)C(=O)N2c2cc(C)ccn2)cc1OC (configuration not stated)
u | CC(Cc1ccccc1)C(=O)NCc1nc2ccccc2s1 (configuration not stated)

As a short view, part of the list above:
HPGD block | Molecule
u | O=C1OCCN1C(=O)[C@H]1[C@H](c2ccc(Cl)cc2)C(c2ccc(F)cc2)=NN1c1ccc(Br)cc1
-13.9% | CC(Oc1ncnc2ccccc12)C(=O)Nc1cccc(S(=O)(=O)N2CCOCC2)c1 (configuration not stated)
-7.2% | O=C(CSc1nncn1-c1ccccc1)Nc1cccc(S(=O)(=O)N2CCCCC2)c1
-11.8% | COc1ccc(-c2nn(-c3ccccc3)cc2CO)cc1

The results go on.
HPGD block | Molecule
1.12µM* | COc1ccc(S(=O)(=O)Nc2cc(Sc3ncn[nH]3)c(O)c3ccccc23)cc1
-13.6% | Cc1ccnc(SCc2cc(=O)c(OC(=O)c3ccc(S(=O)(=O)N4CCCC4)cc3)co2)n1
-4.2% | CCOC(=O)C1C(=O)NC(N2CCCCC2)=NC1C(C)C (configuration not stated)
u | Cc1ccccc1NC(=O)C(C)O/N=C/c1cccc([N+](=O)[O-])c1 (configuration not stated)
-23.7% | CC(=O)N1CCC2(CC1)CCN(c1ncccn1)CC2
-12.0% | CC1(C)CC(=O)C2=C(C1)Nc1ccccc1N=C2
-3.4% | COc1ccccc1N1CCN(CC(=O)c2c(C)[nH]c3ccccc23)CC1
u | CCn1c(=N)c(C(=O)NC)cc2c(=O)n3cccc(C)c3nc21
-10.5% | CCn1c2ccccc2c2cc(NC(=O)CSc3nnc(-c4ccc(OC)c(OC)c4)n3N)ccc21
4.7% | C#CCOCCOCCOCCNc1nc(N2CCN(C(=O)[C@H]([C@@H](C)O)n3cc(CCCCN)nn3)CC2)nc(N2CCN(C(=O)[C@H]([C@@H](C)CC)n3cc(CCCN=C(N)N)nn3)CC2)n1
-9.9% | Cc1cccc(NC(=O)c2ccccc2NC(=O)Cc2ccccc2)c1C
u | CCOC(=O)Cn1c(C(F)(F)F)nc2nc(Cl)c(Cl)nc21
-8.4% | CC1(C)CC(OC(=O)c2ccco2)CC(C)(C)N1O
-3.3% | CCOC(=O)CN1CC23C=CC(O2)C(C(=O)NCc2cccs2)C3C1=O (configuration not stated)
-9.6% | O=C(c1ccccc1)N1CCN(CC#CC2(O)CCCCC2)CC1
0.2% | Cc1ccc(C(=O)N2CCN(C(=O)c3ccccc3)C2c2ccc(N(C)C)cc2)cc1 (configuration not stated)
-2.4% | CCOC(=O)N/N=C/c1c(F)c(F)c(F)c(F)c1F
-20.1% | CCCC(=O)NC(=S)Nc1ccc(N2CCOCC2)c(Cl)c1
-2.5% | CCOc1ccccc1NC(=O)CN(Cc1ccccc1)S(C)(=O)=O
-17.4% | Cc1ccc(S(=O)(=O)N(C)C)cc1NC(=O)c1ccc(OC(F)(F)F)cc1

An excerpt from above in order of length of the SMILES, falling.
HPGD block | Molecule
1.7% | CCN1CCN(CCNC(=O)CS(=O)(=O)Cc2nc(-c3ccc(C)cc3)oc2C)CC1
-13.9% | CC(Oc1ncnc2ccccc12)C(=O)Nc1cccc(S(=O)(=O)N2CCOCC2)c1 (configuration not stated)
-17.4% | Cc1ccc(S(=O)(=O)N(C)C)cc1NC(=O)c1ccc(OC(F)(F)F)cc1
-9.9% | O=C(Nc1ccccc1)N1CCN(Cc2ccc3c(c2)OCO3)CC1
u | CC(Cc1ccccc1)C(=O)NCc1nc2ccccc2s1 (configuration not stated)

(listing goes on)
HPGD block | Molecule
-1.6% | O=C(O)CN1C(=O)CC(Cc2ccc(Cl)cc2)C1=O (configuration not stated)
10µM* | Cc1cccc(NC(=O)CSc2nnc(-c3ccco3)c(-c3ccco3)n2)c1C
-12.1% | O=C(CSc1nc2ccccc2[nH]1)c1ccc2c(c1)OCO2
-16.2% | COc1cccc(-c2nc(Oc3cc(C)cc(C)c3)c3ccccc3n2)c1O
-24.9%&-11.1% | C[C@@H](C(=O)NCC1CC1)[C@@H]1C[C@@]1(C)[C@@H](NC(=O)OCc1ccccc1)c1ccccc1
-4.4% | CC(C)(C)C(=O)N1CCC[C@H]1C(O)(c1ccccc1)c1ccccc1
-4.5% | CCOc1cccc(OCCOCCOc2ccccc2C(C)=O)c1
0.7% | CC1(C)C(C=C(Cl)Cl)C1C(=O)N1CCN(c2ccccc2)CC1 (configuration not stated)
-14.7% | N#CC1=C(N)Oc2n[nH]c(-c3ccc(F)cc3)c2C1c1ccncc1 (configuration not stated)
-4.6% | CC(Sc1nc(NCc2ccccc2)nc(N2CCOCC2)n1)C(=O)Nc1ccccc1 (configuration not stated)
u | COc1ccc2cc3cc(C(=O)NCc4ccc5c(c4)OCO5)oc3nc2c1
-29.8% | O=C(Nc1ccccc1Cl)ON=C1c2ccccc2-c2ccccc21
-21.7% | O=C(/C=C/c1ccccc1)/C=C/c1ccccc1
2.24µM* | COC(=O)/C=C\c1cc(O)ccc1O
-10.4% | CCCc1nnc(NC(=O)CCC(=O)N2CCN(CCOc3ccc(C)cc3)CC2)s1
-10.3% | COc1cc2cc(C(c3nnnn3C(C)(C)C)N3CCc4ccccc43)c(=O)[nH]c2cc1OC (configuration not stated)
-11.2% | C=CCOC(=O)C1=C(C)NC(SCC(=O)OCC)=C(C#N)C1c1ccc(C)cc1 (configuration not stated)
-7.9% | CC(C)(C)C1CCc2c(sc(NC(=O)CSc3nnc(-c4ccccc4)o3)c2C#N)C1 (configuration not stated)
-3.4% | C/C(=N/NC(=O)CCC(=O)Nc1cccc(Cl)c1)c1ccc(C)cc1
-12.2% | O=C(c1ccco1)N1CCC(c2nc(-c3ccc(F)cc3)no2)CC1

Going on with the list.
HPGD block | Molecule
-11.2% | CNC(=O)c1cc2cccc(OC)c2oc1=O
u | CNC(=O)c1cc2cc(OC)ccc2oc1=N
-0.6% | CC(C)(C)c1cc(NC(=O)CSc2nncs2)n(-c2ccccc2)n1
-9.6% | COC(=O)CSc1nnc(-c2ccoc2C)n1-c1ccc(C)cc1
-29.0% | COC(=O)c1cn(NC(=O)C2COc3ccccc3O2)c(=O)c2ccccc12 (configuration not stated)
-22.1% | O=C1Nc2ccccc2C(O)(C(=O)NCc2ccco2)N1c1ccc(Cl)c(Cl)c1 (configuration not stated)
-1.2% | CCOc1ccc(CN2C(=O)c3ccccc3C2C(=O)NCc2cccnc2)cc1 (configuration not stated)
-27.1% | CCCc1c(C)c2ccccc2[nH]c1=O
-4.2% | COc1ccc2c(c1)CCCC21NC(=O)NC1=O (configuration not stated)
u | CC(C)NC(=O)c1sc2nc(-c3cccs3)cc(-c3cccs3)c2c1N
-18.3% | CCn1c(Cc2ccccc2)nnc1SCC(=O)c1cccc([N+](=O)[O-])c1
-5.6% | Cc1ccc(C(C)NC(=O)c2c(C)noc2C)cc1C (configuration not stated)
1.4% | COc1ccc(C(=O)Nn2c(C)ccc2C)cc1OC
-14.4% | CCOc1ccc(N(CC(=O)NCc2ccccc2)S(=O)(=O)c2c(C)noc2C)cc1
-26.4% | COc1ccc(-c2noc(CCC(=O)Nc3cccnc3)n2)cc1OC
5.01µM* | Cc1c(Cl)c([N+](=O)[O-])nn1CCCC(=O)Nc1sc2c(c1C(N)=O)CCC(C)C2 (configuration not stated)
-7.0% | COC(=O)C(C)(C(=O)OC)c1ccccc1[N+](=O)[O-]
-1.9% | COc1ccc(-c2nc3c(c4c2C[C@H](c2ccccc2)OC4)CN(S(=O)(=O)c2c(C)noc2C)CC3)c(C)c1
-10.8% | Cc1nn(Cc2ccc(Cl)cc2Cl)c(C)c1NC(=O)NC12CC3CC(CC(C3)C1)C2
-20.6% | O=C(c1cc2cc(Cl)ccc2oc1=O)N1CCCC1

(cont.)
HPGD block | Molecule
-0.2% | FC(F)(F)c1ccc(C2[C@H]3CN(Cc4ccc(-c5ccccc5)cc4)[C@H](c4ccccc4)C34CC2(c2cccnc2)C4)cc1 (some centres not stated)
-21.6% | Cc1cc(C(=O)COC(=O)C2=NNC(=O)CC2)c(C)n1-c1ccc(OC(F)F)cc1
-10.6% | CC(=O)NC(CCS(C)(=O)=O)C(=O)Nc1c(F)cccc1F (configuration not stated)
-20.0% | COC(=O)/C(=C\c1c[nH]c2ccccc12)NC(C)=O
-26.6% | COc1cc2[nH]c(=O)n(CCCC(=O)N3CC=C(c4ccccc4)CC3)c(=O)c2cc1OC
-8.8% | NC(=O)c1c(NC(=O)CSc2nnc(Cc3ccccc3)n2Cc2ccco2)sc2c1CCC2
0.3% | Cc1cc(C(=O)OCC(=O)N2c3ccccc3CC2C)c(C)o1 (configuration not stated)
-18.9% | Cc1c(-c2ccccc2)nc(-c2ccccc2)[nH]c1=O
-3.8%&-6.4% | COC(=O)N1C(C2CC2)=Cc2ccccc2C1CC(C)=O (configuration not stated)
1.6% | CC1CCN(C(=O)Cn2nc(C(F)(F)F)c3c2CCCC3)CC1
-11.9% | CCSc1nnc(NC(=O)CCc2ccccc2)s1
-18.8% | COc1ccc(C)c2sc(N3CCCC3)nc12
-9.9% | CCCS(=O)(=O)Nc1cc(C(F)(F)F)ccc1OCCOC
-5.0% | Cc1noc(C)c1S(=O)(=O)N1CCC(C(=O)NCCc2ccc(S(N)(=O)=O)cc2)CC1
-5.3% | Cc1ccc(C)n1-n1cnc2scc(-c3cccs3)c2c1=O
35.5µM* | CC1CN(c2ccc(Oc3ccccc3)cc2)c2nc3c(c(=O)[nH]c(=O)n3C)n2C1 (configuration not stated)
-17.7% | COc1ccccc1CN1CC[C@@]2(CCCN(C(=O)c3cc(C(F)(F)F)cc(C(F)(F)F)c3)C2)C1
-20.3% | Cc1ccc(N=C2SCCCN2C(=O)c2ccco2)cc1Cl
0.7% | COc1cc(CCC(=O)OCC(=O)Nc2ccccc2C(C)C)cc(OC)c1OC
3.9% | FC(F)Oc1ccccc1C1CC(c2ccc(Br)s2)Nc2ncnn21 (configuration not stated)

Continued:
HPGD block | Molecule
15.8µM* | O=C(NCc1ccco1)c1cccnc1-c1nc2ccccc2s1
-11.5% | Cc1cccc(NC(=O)CSc2nnc(-c3ccccc3)n2N)c1C
-25.6% | CCc1ccc(CCC(=O)Nc2ncc(Cc3ccccc3Cl)s2)o1
-22.7% | Cc1cc(C(=O)CN2C(=O)c3ccccc3C2=O)c(C)n1Cc1cccs1
-11.7% | CC(C)C(NC(=O)OCc1ccccc1)C(=O)OCC(=O)N1CCCCC1 (configuration not stated)
6.31µM* | Cc1cc(-c2n[nH]c(=S)n2/N=C/C(Cl)=C/c2ccccc2)n[nH]1
-11.7% | CC(C)(C)OC(=O)NCc1nc(N)n[nH]1
-19.1% | Cc1cc(C)cc(N(CCC#N)C(=O)CSc2nc3nc(C)cc(C)n3n2)c1
-19.3% | COc1cc(C(=O)Nc2cccc(-c3nc4ncccc4o3)c2C)cc(OC)c1OC
-23.8% | CCOC(=O)c1cc(-c2nnc(-c3ccc(Cl)cc3)o2)c(C)nc1C
6.4% | Cc1cccc(C)c1OCCCCn1cnc2ccccc2c1=O
-0.9% | CC(=O)Nc1cccc(Oc2ncnc3scc(-c4ccc(C(C)C)cc4)c23)c1
-2.1% | COc1ccc(C(=O)Nc2cc(C(F)(F)F)ccc2-n2cnc3ccccc32)cc1
-13.0% | COC(=O)c1cccc(NS(C)(=O)=O)c1C
u | CCOC(=O)c1cc2c(n(-c3ccc(C)cc3)c1=O)CCCC2=O
-21.1% | Cn1cc(C(=O)c2ccc(Cl)cc2Cl)cc1C(=O)N/N=C(\N)COc1cccc(C(F)(F)F)c1
-15.2% | COc1cc(/C=N/NC(N)=S)cc(Br)c1OCc1ccccc1F
-13.9% | O=C(NCc1ccncc1)Nc1cccc(Cl)c1
0.9% | CCOc1cc(C#N)c(NC(=O)c2cccnc2)cc1OCC
-3.6% | Cc1[nH]n(-c2ccccc2)c(=O)c1C1(C(F)(F)F)C(=O)N(c2ccccc2)C2=C1C(=O)CC(C)(C)C2 (configuration not stated)
